HIV Env fusion: blocks HIV Env-driven cell-cell fusion; HeLa-JRFL Env/CEM21 cell fusion, luciferase; inhibition, % at 12.3 µM; hit rate 1.1% among 360,000; AID 651610;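 active means mean replicate inhibition score of at least 50 and every replicate individually at or above 50; inconclusive means only one of the two criteria met; inactive means mean below 50 and not all replicates reaching 50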;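 further: 0% = plate neutral controls and 100% = maraviroc near 300 nM; one replicate is shown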
eIF4H FP inh: inhibitors of RNA binding by human eIF4H. Q15056. eIF4H fluorescence polarization binding assay. inhibition, % at 35 µM. hit rate 0.94% among 290,000;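 active means 50% or more with normal probe brightness, or confirmed in later tests; inconclusive means above 50% with abnormal brightness, or retests that disagree; inactive means below 50% or failed in later tests; about a fifth of its hits are not listed in these tables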;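 further: calls also rest on retests at 20 µM and on dose response follow-up; 0% = protein and probe with vehicle and 100% = probe without protein; strong numbers were not always called active; many hits fall short of the cut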
Rce1 inhib: blocks yeast Ras-converting enzyme | Q03530 | yeast membranes, quenched prenylated peptide cleavage fluorescence | calls only | hit rate 0.27% among 290,000;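 active means fall in fluorescence gain of 50% or more versus controls, with final raw signal at or below 3038400; inconclusive means same 50% fall but final raw signal above 3038400; inactive means fall in fluorescence gain under 50%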;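 further: plate controls were neutral control wells for no effect and wells lacking membranes for full effect; tested at 10 µM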
Target sequence (Q03530 whole entry, looked up): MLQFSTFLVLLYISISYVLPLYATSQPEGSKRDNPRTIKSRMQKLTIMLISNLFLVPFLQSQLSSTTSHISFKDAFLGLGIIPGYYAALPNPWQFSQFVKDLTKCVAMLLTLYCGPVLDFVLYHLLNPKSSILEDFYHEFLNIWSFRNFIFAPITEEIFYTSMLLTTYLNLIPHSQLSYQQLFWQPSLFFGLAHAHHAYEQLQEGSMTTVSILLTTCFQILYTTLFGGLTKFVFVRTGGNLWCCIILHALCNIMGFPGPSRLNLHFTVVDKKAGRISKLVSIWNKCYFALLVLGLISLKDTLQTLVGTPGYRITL
CSC inhib: blocks cancer stem cells. cancer stem cell-like cells viability, luminescence. inhibition, % at 7.5 µM. hit rate 1.1% among 300,000. AID 2717;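 active means mean at 75% or more and at least half the replicates too; inconclusive means mean and replicates disagree; tested in HMLE shEcad cells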;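 further: 0% = median of negative and 100% = median of positive control wells; the first replicate is given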
MT1-MMP act inh: blocks activation of human MT1-MMP. P50281. HT1080 RFP-PRO-GFP cells, GFP/RFP ratio fluorescence, overnight; percent of plate control window, DMSO zero. GFP/RFP ratio change, % at 20 µM. hit rate 0.061% among 360,000. AID 651647;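 active means GFP/RFP ratio change of at least 30% with cell ATP level not reduced by more than half and red fluorescence within 50% of control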; further: strong numbers were not always called active
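Assay system – RFP-PRO-GFP reporter HT1080 cells · Compound dosing – single dose of 20 µM compound, 1% DMSO final · Incubation – overnight compound exposure at 37 °C · Measure – GFP/RFP fluorescence ratio · Benchmarks – DMSO wells and RFP-L50D-GFP cells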
PABP FP inh: blocks human PABP binding to poly(A) RNA. P11940. fluorescence polarization. inhibition, % at 35 µM. hit rate 1% among 290,000. AID 2014;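 active means 50% or more with normal probe brightness, or confirmed in later tests; inconclusive means above 50% with abnormal brightness, or retests that disagree; inactive means below 50% or failed in later tests; about a fifth of its hits are not listed in these tables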;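 further: calls also rest on retests at 20 µM and on dose response follow-up; controls were probe without protein and protein plus probe with vehicle; some compounds called inactive have numbers as strong as hits; many hits fall short of the cut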
Target sequence (P11940 whole entry, looked up): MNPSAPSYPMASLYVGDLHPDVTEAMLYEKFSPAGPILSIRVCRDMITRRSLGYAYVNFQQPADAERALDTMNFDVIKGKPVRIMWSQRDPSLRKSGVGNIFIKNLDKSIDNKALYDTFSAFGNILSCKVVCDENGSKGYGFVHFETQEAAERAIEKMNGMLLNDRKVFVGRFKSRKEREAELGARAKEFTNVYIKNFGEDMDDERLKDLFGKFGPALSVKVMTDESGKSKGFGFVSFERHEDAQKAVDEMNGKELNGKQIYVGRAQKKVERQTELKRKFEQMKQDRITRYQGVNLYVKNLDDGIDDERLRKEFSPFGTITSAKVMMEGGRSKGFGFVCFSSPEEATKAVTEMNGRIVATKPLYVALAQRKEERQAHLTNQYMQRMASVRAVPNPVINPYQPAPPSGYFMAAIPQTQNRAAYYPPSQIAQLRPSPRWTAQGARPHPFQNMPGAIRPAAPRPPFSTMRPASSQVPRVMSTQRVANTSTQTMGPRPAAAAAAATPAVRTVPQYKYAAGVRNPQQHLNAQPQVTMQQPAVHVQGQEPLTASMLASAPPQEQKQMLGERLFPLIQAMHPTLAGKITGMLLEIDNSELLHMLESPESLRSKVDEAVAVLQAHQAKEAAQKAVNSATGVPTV
Yeast UUG start: modulators of start codon recognition fidelity in yeast | S. cerevisiae UUG-firefly luciferase reporter, luminescence/redox ratio | activity score, % at 18.7 µM | hit rate 0.13% among 350,000;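 active means replicate mean at a twofold rise or more, about +100% in these data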;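 further: firefly luciferase made from a UUG start codon reports start codon fidelity; reporter light over untreated wells divided by growth signal over untreated wells; some hits fall short of that in this replicate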
eIF4H FP inh retest: also measured in eIF4H FP inh; calls as there; inhibition, %; compound at 20 µM; confirmation average;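 mean of two retest wells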
PABP FP inh retest: recorded beside PABP FP inh, whose call it bears; inhibition, %; compound at 20 µM; confirmation repeats;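 mean of two retest wells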
MT1-MMP act inh RFP: recorded beside MT1-MMP act inh, whose call it bears; RFP signal change, %; measured here: RFP expression control read;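 0 = vehicle wells; hits needed this value within 50% of zero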
Numbers without * were called inactive; i = inactive; ? = inconclusive; . = not tested or not shown.

SMILES	HIV Env fusion	eIF4H FP inh	Rce1 inhib	CSC inhib	MT1-MMP act inh	MT1-MMP act inh RFP	PABP FP inh	Yeast UUG start	others
O=C(CSc1nnc(C2COc3ccccc3O2)o1)N1CCCCC1 (stereo unspecified)	-16	-12	i	8	5	-2	-10	-16
COc1ccccc1CCNC(=O)C(=O)c1cn(CC(=O)N2CCCC2)c2ccccc12	-29	3	i	-3	-3	-3	-3	6
c1ccc(-c2cc(N3CCOCC3)nc(-c3ccccc3)n2)cc1	22	7	.	0	-3	-5	-3	.
NS(=O)(=O)c1ccccc1NC(=O)c1c(O)c2ccccc2[nH]c1=O	-65	-8	i	12	-6	-4	3	-9
CCC(C)[C@@H](N)C(=O)N/N=C/c1ccc2ncccc2c1 (stereo partly specified)	2	-6	i	12	0	2	-4	-18
CCOc1ccc(CN2CCN(Cc3cccn3-c3nccs3)CC2CCO)cc1 (stereo unspecified)	8	-8	i	-10	4	7	-6	-9
COc1cc([N+](=O)[O-])ccc1NC(=O)COC(=O)c1ccc(NC(N)=O)cc1	7	.	i	-19	3	-1	.	.
CCC(=O)c1ccc(OC(=O)C2CCN(C3=NS(=O)(=O)c4ccccc43)CC2)cc1	-19	.	.	-8	-2	2	.	-7
CCOc1ccc(CCN2C(=S)N([C@@H](CC(C)C)CN3CCCC3CN3C(=S)NC[C@@H]3Cc3ccc(O)cc3)C[C@@H]2CC(C)C)cc1 (stereo partly specified)	-13	.	.	.	-7	-16	.	-3
Cc1cccc2cc(C(c3nnnn3C3CCCC3)N3CCOCC3)c(=O)[nH]c12 (stereo unspecified)	-9	1	i	-10	-7	-6	42	-9
CC(C)c1[nH]nc2c1C(c1cccc(OC(=O)N3CCOCC3)c1)C(C#N)=C(N)O2 (stereo unspecified)	.	-2	i	-9	4	3	0	-20
CC(C)C(NS(=O)(=O)c1cccc(C(F)(F)F)c1)C(=O)N1CCc2ccccc2C1 (stereo unspecified)	8	-1	i	4	-4	-5	2	20
O=C(Nc1cccc(C(=O)N2CCCc3ccccc32)c1)c1ccccc1	-7	11	i	48	-4	-21	3	-4
CCOC(=O)c1c(N2C(=O)Nc3ccccc3N2O)sc2c1CCCC2	-33	7	i	5	1	-2	14	.
COC(=O)C1=C(C)N(c2ccc(OC)c(OC)c2)C(=O)/C1=C\c1cccs1	2	0	i	-3	-3	-1	6	.
CC(C)c1ccc(NC2CCCN(C(=O)CN3CCOC3=O)C2)cc1 (stereo unspecified)	.	-7	i	-11	1	2	-5	-10
O=[N+]([O-])c1cc(S(=O)(=O)C(F)(F)F)ccc1NCC1CCCO1 (stereo unspecified)	21	-6	i	18	3	-2	6	-9
COc1ccc(/C=C2\SC(=S)NC2=O)cc1OS(=O)(=O)c1ccc(NC(C)=O)cc1	-11	3	i	.	-6	1	-3	.
CCOC(=O)c1oc2ccccc2c1NC(=O)COC	-7	1	i	.	3	1	2	-9
Cc1ccc(OCCN2C(=O)C(=O)c3cccc(C)c32)cc1	-1	-5	i	16	-3	2	4	-16
CCCN1C(=O)c2ccccc2NC1c1cc(OC)c(OC)c(OC)c1 (stereo unspecified)	-17	-3	i	-12	-6	0	-4	-8
Cc1cccc(N2C(=O)CC(c3ccc(F)cc3)C3=C2COC3=O)c1 (stereo unspecified)	-35	5	i	-3	-4	-10	8	.
COC(=O)c1c(S(=O)(=O)N2CCOCC2)c(C)n(C)c1C	9	-6	i	-13	1	4	-4	-8
Cc1ccc(CCNC(=O)C2CCC(=O)N2CCc2ccccc2)cc1 (stereo unspecified)	23	-4	i	.	-1	1	-3	25

Some of these compounds in order of length of the SMILES, rising:
SMILES	HIV Env fusion	eIF4H FP inh	Rce1 inhib	CSC inhib	MT1-MMP act inh	MT1-MMP act inh RFP	PABP FP inh	Yeast UUG start	others
CCOC(=O)c1oc2ccccc2c1NC(=O)COC	-7	1	i	.	3	1	2	-9
O=C(CSc1nnc(C2COc3ccccc3O2)o1)N1CCCCC1 (stereo unspecified)	-16	-12	i	8	5	-2	-10	-16
CCC(C)[C@@H](N)C(=O)N/N=C/c1ccc2ncccc2c1 (stereo partly specified)	2	-6	i	12	0	2	-4	-18
CCCN1C(=O)c2ccccc2NC1c1cc(OC)c(OC)c(OC)c1 (stereo unspecified)	-17	-3	i	-12	-6	0	-4	-8
CCOC(=O)c1c(N2C(=O)Nc3ccccc3N2O)sc2c1CCCC2	-33	7	i	5	1	-2	14	.
CCOc1ccc(CN2CCN(Cc3cccn3-c3nccs3)CC2CCO)cc1 (stereo unspecified)	8	-8	i	-10	4	7	-6	-9
Cc1cccc(N2C(=O)CC(c3ccc(F)cc3)C3=C2COC3=O)c1 (stereo unspecified)	-35	5	i	-3	-4	-10	8	.
NS(=O)(=O)c1ccccc1NC(=O)c1c(O)c2ccccc2[nH]c1=O	-65	-8	i	12	-6	-4	3	-9
O=[N+]([O-])c1cc(S(=O)(=O)C(F)(F)F)ccc1NCC1CCCO1 (stereo unspecified)	21	-6	i	18	3	-2	6	-9
Cc1cccc2cc(C(c3nnnn3C3CCCC3)N3CCOCC3)c(=O)[nH]c12 (stereo unspecified)	-9	1	i	-10	-7	-6	42	-9
COC(=O)C1=C(C)N(c2ccc(OC)c(OC)c2)C(=O)/C1=C\c1cccs1	2	0	i	-3	-3	-1	6	.
COc1cc([N+](=O)[O-])ccc1NC(=O)COC(=O)c1ccc(NC(N)=O)cc1	7	.	i	-19	3	-1	.	.
CC(C)C(NS(=O)(=O)c1cccc(C(F)(F)F)c1)C(=O)N1CCc2ccccc2C1 (stereo unspecified)	8	-1	i	4	-4	-5	2	20
COc1ccc(/C=C2\SC(=S)NC2=O)cc1OS(=O)(=O)c1ccc(NC(C)=O)cc1	-11	3	i	.	-6	1	-3	.
CCOc1ccc(CCN2C(=S)N([C@@H](CC(C)C)CN3CCCC3CN3C(=S)NC[C@@H]3Cc3ccc(O)cc3)C[C@@H]2CC(C)C)cc1 (stereo partly specified)	-13	.	.	.	-7	-16	.	-3

The main list resumes; the 2 compounds before the break are reprinted first.
SMILES	HIV Env fusion	eIF4H FP inh	Rce1 inhib	CSC inhib	MT1-MMP act inh	MT1-MMP act inh RFP	PABP FP inh	Yeast UUG start	others
COC(=O)c1c(S(=O)(=O)N2CCOCC2)c(C)n(C)c1C	9	-6	i	-13	1	4	-4	-8
Cc1ccc(CCNC(=O)C2CCC(=O)N2CCc2ccccc2)cc1 (stereo unspecified)	23	-4	i	.	-1	1	-3	25
CN(CC(=O)Nc1c(Cl)cccc1Cl)C(=O)CNC(=O)c1ccc2c(c1)OCO2	-14	.	i	7	2	2	.	.
Cn1c(COc2ccc(Cl)cc2Cl)nnc1SCC(=O)NCC1CCCO1 (stereo unspecified)	11	2	i	-2	-2	0	12	-13
Brc1ccccc1-c1nnc(SCc2nc3ccccc3s2)o1	.	-6	i	-2	-8	4	-8	.
CCN(C(=O)C1CCCN1S(=O)(=O)c1cccc2nsnc12)c1ccccc1 (stereo unspecified)	-1	1	i	8	1	2	-3	-2
O=C(Nc1cccc(O)c1)c1cc(-c2cccs2)on1	-135	2	i	14	2	0	-1	-71
Cc1cccc(-c2ccc3c(c2)C2CC3CCN2)c1 (stereo unspecified)	43	.	.	.	-1	0	.	12
O=C(c1ccccc1)N1CCN(C2CC(=O)N(CCc3ccccc3)C2=O)CC1 (stereo unspecified)	.	9	i	-3	.	.	6	-16
COC(=O)Cn1c(=NC(=O)CSCC(=O)NC2CCCCC2)sc2cc(OC)ccc21	.	-1	i	-7	0	3	-3	-8
CCc1ccc(NC(=O)CCNC(=O)Cn2ccc3ccccc3c2=O)cc1	-8	-3	i	-5	2	-2	8	-10
N/C(CN1CCCC1=O)=N\OC(=O)c1ccc(Cl)c(Cl)c1	9	-7	i	-6	0	-1	-11	-10
COc1ccc(NC(=O)C2CC2)cc1NS(=O)(=O)c1ccc(F)cc1	6	9	i	2	1	4	7	-30
COc1ccccc1NS(=O)(=O)c1ccc(N/N=C/c2ccccc2OCC(=O)O)c([N+](=O)[O-])c1	9	0	i	-4	10	3	-14	5
Cc1ccc(-n2nnnc2C(=Cc2ccc(N(C)C)cc2)c2nnnn2-c2ccc(C)cc2)cc1	?	68	i	10	-51	-1	-13	.	eIF4H FP inh retest=2;PABP FP inh retest=2
O=C(O)c1cc(-n2nnnc2SCc2ccc([N+](=O)[O-])cc2)ccc1Cl	-2	5	i	-9	3	5	12	-13
O=C(NCCN1CCOCC1)c1cc([N+](=O)[O-])cc([N+](=O)[O-])c1	-2	0	i	-7	3	-1	-3	0
CC(C)CCNC(=O)CN(Cc1cccs1)C(=O)CCC(=O)Nc1nccs1	.	-5	i	-2	-1	5	-8	-10
N#Cc1ccccc1S(=O)(=O)N1CCN(c2cnccn2)CC1	5	5	i	8	1	5	4	.
O=C(CCCNS(=O)(=O)c1cccs1)N1CCN(c2ccc(F)cc2)CC1	-14	-13	i	-9	-1	-2	-9	0
O=C(NNC(=O)c1cccnc1)Nc1cccc(Cl)c1Cl	-3	0	i	.	0	5	3	-6
COC(=O)[C@@]1(Cc2ccccc2)[C@H]2C(=O)N(Cc3ccccc3)C(=O)[C@H]2[C@H]2CN=C(SC)N21	15	.	.	.	1	1	.	-5
CC(C)c1ccc(/C=C2\C(=O)N(CCN3CCOCC3)C(=S)N2C)cc1	14	2	i	0	-4	-6	6	.
CCc1nc2ccccc2n(CCOCCOCCn2c(=O)c(CC)nc3ccccc32)c1=O	.	-1	i	26	2	0	8	-8
O=C(Cc1c[nH]c2ccccc12)N/N=C/c1ccccc1O	-6	-6	i	24	9	3	-8	.
O=C(Nc1ccccc1)N1CCN(c2nc(-c3ccccc3)ns2)CC1	5	-11	i	-2	7	-17	0	.
COc1cccc(NC(=O)C2(C)CCN2CCc2ccccc2)c1 (stereo unspecified)	10	.	.	.	-7	-8	.	3
CC(C)C(=O)Nc1nc2c(ncn2C2CC(O)C(CO)O2)c(=O)[nH]1 (stereo unspecified)	-17	1	i	-12	14	30	-5	-21
CN(c1ccccc1)S(=O)(=O)c1ccc(C(=O)NCC2CCCO2)cc1 (stereo unspecified)	14	0	i	-3	-5	2	11	-3
COc1ccccc1N=Nc1nc(-c2ccccc2)c(-c2ccccc2)[nH]1	-88	30	i	60	31*	-7.1*	0	.
COc1ccc(-c2ccccc2)cc1NC(=O)[C@@H]1O[C@H](CO)[C@H](O)[C@H](O)[C@H]1O	6	.	.	.	-1	3	.	4
C/C(=N\NC(=S)Nc1cccc(C)c1)c1cccc(N)c1	7	-2	i	-2	4	3	11	-5
NC(=S)N/N=C/c1coc2ccc(Cl)cc2c1=O	-1	5	i	-12	-13	-5	-7	.
Cn1c(=O)oc2cc(S(=O)(=O)N3CCC(N4CCCCC4)CC3)ccc21	.	11	.	4	-5	5	-8	15
Cc1nc2ccccc2nc1OCC(=O)N1CCN(c2ccccc2)CC1	.	4	i	-8	-8	0	-7	-12
CCOC(=O)C1C(C(=O)OCC)C1(c1ccccc1)c1ccccc1 (stereo unspecified)	-1	-8	i	1	-7	-3	11	.
Cc1ccc(C(=O)Nc2ccccc2C(=O)N2CCOCC2)cc1[N+](=O)[O-]	-6	-6	i	-1	-5	-6	-16	.

Assay outcomes from PubChem BioAssay.
